# From PubChem BioAssay
# VDR inh: Inhibitors of the vitamin D receptor (VDR): qHTS; Vitamin D3 receptor (Homo sapiens), P11473; VDR-SRC2-3 peptide fluorescence polarization, 2 h; Potency, µM, for inactives: max response, negative = inhibition, actives largely listed as inhibitors; hit rate 0.93% among 400,000; AID 504847, 2011; active means well fitted inhibition curve with a large enough effect; inconclusive means small, poorly fitted or top-dose-only effect, or another doubt; inactive means no such curve, though single readings can be large or run the other way; further: series mostly up to about 120 µM
# Target sequence (P11473 whole entry, looked up): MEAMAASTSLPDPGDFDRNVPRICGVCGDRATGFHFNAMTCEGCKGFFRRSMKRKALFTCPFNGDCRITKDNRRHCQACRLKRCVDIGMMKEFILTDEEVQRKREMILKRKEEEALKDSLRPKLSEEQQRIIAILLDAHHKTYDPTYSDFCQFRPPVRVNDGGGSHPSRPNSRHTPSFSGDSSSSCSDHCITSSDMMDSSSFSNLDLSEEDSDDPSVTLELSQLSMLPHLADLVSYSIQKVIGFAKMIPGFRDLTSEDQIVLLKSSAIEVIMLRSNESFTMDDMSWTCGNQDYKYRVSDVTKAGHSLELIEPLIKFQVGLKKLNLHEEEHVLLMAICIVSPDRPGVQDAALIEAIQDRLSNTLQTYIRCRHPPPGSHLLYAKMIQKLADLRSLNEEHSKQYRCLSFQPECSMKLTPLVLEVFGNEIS
#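 Two reagent solutions held at 4 deg C in the dark were dispensed, compounds pinned at 23 nl, and the mixture incubated 2 h at room temperature. Read-out: fluorescence polarization of VDR–SRC2-3 peptide binding.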
# * = called active by the depositor; ? = inconclusive. On the % scale 0 is the no-effect control and ±100 the full control effect; potency means the concentration at half of the fitted maximal effect. Some of the compounds tested; rates above refer to the full screens.
VDR inh	molecule
1.5%	OCCC1CN(Cc2c(F)cccc2Cl)CCN1C1CCCC1 (stereo not given)
-2.7%	O=C(COc1ccccc1)NC(=S)Nc1ccc2c3c(cccc13)CC2
1.4%	CCOC(=O)c1[nH]c(C)c(C(=O)OCC)c1C
-5.3%	Cc1ccc(-c2csnn2)cc1
8.1%	COC(=O)c1ccc(C(=O)OC)c(NC(=S)N2CCCCC2C)c1 (stereo not given)
-3.1%	Cc1cccc(-n2nnc(-c3nc(-c4cccs4)no3)c2N)c1
-17.0%	COc1ccccc1-n1c(-c2ccccc2)c[nH]c1=S
-11.2%	Cc1ccc2cc3cc(C(=O)NCCCN4CCCC4=O)oc3nc2c1
?	CCOC(=O)c1cnc2c(F)ccc(F)c2c1Sc1ccccc1
-11.1%	CC(=O)Nc1ccc(NC2=C/C(=N/S(=O)(=O)c3cccs3)c3ccccc3C2=O)cc1
-0.9%	CC1Cc2cc(/C(O)=C3/C(=O)C(=O)N(CCCn4ccnc4)C3c3ccco3)ccc2O1 (stereo not given)
14.7%	Cc1ccc(NC(=O)C2CCN(S(=O)(=O)c3cc(-c4noc(C)n4)ccc3C)CC2)c(C)c1
15.8%	C=CCNC(=S)NNC(=O)C(CCCC)CC(C)(C)O (stereo not given)
21.2%	O=C(Nc1cccc(-c2cccc(Cl)c2)c1)C1CCN(C2CCC2)CC1
-0.7%	COc1ccc(C(=O)O)cc1S(=O)(=O)NC(C)C
6.4%	O=c1oc(-c2ccccc2)nc2sc3c(c12)CCCC3
?	COc1ccc(C=CC(=O)c2cc(O)ccc2O)cc1
-16.8%	CCCCCCCCN1[C@@H](CC(=O)O)c2cc(C(F)(F)F)ccc2S1(=O)=O
7.4%	O=C(c1c[nH]c2ccccc12)N1CCN(c2ccccc2)CC1
1.2%	Cc1cc(C)c(S(=O)(=O)N2CCC(C(=O)NCc3ccc(Cl)cc3Cl)CC2)c(C)c1
-9.6%	O=C(Oc1ccccc1)N1CCN(c2ccccc2F)CC1
2.0%	Cc1n[nH]c(C)c1CCC(=O)N/N=C/c1cccc([N+](=O)[O-])c1
-3.2%	Oc1ccc(C2C(c3ccccc3)=NN=C(c3ccccc3F)N2O)c(O)c1 (stereo not given)
11.9%	COc1ccc(CCN2CCC(CNC(=O)c3cnn(-c4ccccc4)c3C3CCN(C(=O)OC(C)(C)C)CC3)CC2)cc1
1.7%	O=C(NCCCN1CCCC1=O)Nc1ccc(F)c(Cl)c1
-8.3%	CCC1(C)Cc2ccccc2-c2nc(-c3ccccc3)oc(=O)c21 (stereo not given)
19.0%	Cc1ccc(C(=O)NC(C(=O)NC2CCCC2)c2ccccc2)cc1 (stereo not given)
4.5%	CC(=O)Nc1ccc(C(=O)NNC(=O)c2ccc(Cl)cc2Cl)cc1
-23.3%	O=C(COC(=O)c1n[nH]c2ccccc12)Nc1ccc([N+](=O)[O-])cc1
-12.6%	COc1ccc(C(=O)NCC(=O)OCC(=O)NCc2ccco2)cc1
-5.3%	Cc1cc(S(=O)(=O)Nc2ccc3oc4c(c3c2)CCCC4)ccc1Cl
1.4%	CCN(CC)CCC(c1ccc2c(c1)OCO2)c1c(OC)cc(OC)c2c(C)cc(=O)oc12 (stereo not given)
-4.0%	C=CCN(CC=C)S(=O)(=O)c1ccc(NC(=O)COc2ccccc2OC)cc1
-16.4%	CC(=O)SC1CC2=CC(=O)CCC2(C)C2CCC3(C)C(CCC34CCC(=O)O4)C12 (stereo not given)
1.0%	CCOC(=O)C1(S(=O)(=O)c2ccccc2)CCN(Cc2ccccc2)CC1
-4.1%	CCOC(=O)C1(Cc2ccccc2C)CCCN(S(=O)(=O)c2cccnc2)C1 (stereo not given)
-8.1%	S=C(NCc1ccccc1)N1CCN(c2cccc(Cl)c2)CC1
1.9%	CCOCCCNC(=O)N[C@@H](Cc1ccccc1)C(=O)OC
-7.7%	Cc1cc(C)c(Cn2c(=O)n(CCCCC(=O)NCc3ccccc3Cl)c(=O)c3ccccc32)c(C)c1
12.8%	CCOc1c(C)cnc2c1c(=O)n(Cc1c(F)cccc1Cl)c(=O)n2C
-15.6%	COc1ccc(NC(=S)N2CCN(Cc3ccccc3)CC2)cc1
-17.4%	O=C(CNC(=S)N(Cc1ccccc1)Cc1ccccc1F)NCc1ccc(Cl)cc1
-7.1%	COc1ccc(/C=N/NC(=O)c2sccc2C)c2ccccc12
-7.6%	Cc1cc(C)nc(/N=C(\N)Nc2ccc(CC(=O)OC(C)C)cc2)n1
-5.7%	Cc1ccc(S(=O)(=O)N2CCOCC2)cc1NC(=O)c1cccc(S(=O)(=O)N2CCCC2)c1
-13.5%	Cc1ccc2oc(=O)c3cc(C(=O)Nc4cccc(C#N)c4)sc3c2c1
4.6%	COCCCn1c(=N)c(C(=O)NCC2CCCO2)cc2c(=O)n3ccccc3nc21 (stereo not given)
3.5%	CCOc1ccccc1NC(=O)CN1C(=O)C(C)SC(C)C1=O (stereo not given)
-7.3%	CC(=NCCCn1ccnc1)c1c(O)n(Cc2ccccc2)c(=O)[nH]c1=O
1.1%	CNC(=O)C(N)CSC(C)C1=C(C)c2cc3[n-]c(cc4nc(cc5[n-]c(cc1n2)c(C)c5CCC(=O)O)C(CCC(=O)O)=C4C)c(C)c3C(C)SCC(N)C(=O)NC.[Fe+2] (stereo not given)
4.4%	CCN(C(=O)c1ccc2c(c1)N(Cc1cccc(Cl)c1)C(=O)c1ccccc1S2=O)c1ccccc1 (stereo not given)
3.0%	COc1ccccc1CNC(=O)c1ccc(-c2nc(CS(=O)(=O)c3ccc(C)cc3)c(C)o2)cc1
19.2%	CC(C)Oc1ccc(C2CC(=O)NC3=C2C(=O)CCC3)cc1 (stereo not given)
-15.9%	CCN1C(=S)N[C@@H](c2cccs2)C(C(=O)OC)=C1C
-20.0%	CCN(CC)C(=S)Nc1ccc2nc3n(c(=O)c2c1)CCCCC3
-2.0%	Cc1ccc(CNC(=O)CCSCc2ccccc2C)cc1
-19.6%	CCOC(=O)c1c(NC(C)=O)sc2c1C1CCN2CC1
-10.6%	CCCCOc1nc2ccccc2nc1C(C#N)C(=O)NC1CCCCC1 (stereo not given)
-0.5%	CS(=O)(=O)c1[nH]nc(-c2ccccc2Cl)c1C#N
-16.5%	Cc1ccc(S(=O)(=O)NCC(=O)N(CC(=O)NCC2CCCO2)Cc2ccc(Cl)cc2)cc1 (stereo not given)

# Additional records follow.
VDR inh	molecule
13.0%	Cc1ccc(S(=O)(=O)NCCC(=O)Nc2ccc3c(c2)OCO3)cc1
-14.8%	Cc1noc(C)c1C(=O)OCC(=O)Nc1ccc(C(N)=O)cc1
-13.2%	Cc1noc(NS(=O)(=O)c2ccc(NC(=O)CC34CC5CC(CC(Br)(C5)C3)C4)cc2)c1C
12.7%	COc1cccc(NC(=O)CN2C(=O)C3(SCC(=O)N3c3cc(C)cc(C)c3)c3ccccc32)c1 (stereo not given)
8.4%	Cc1cc(=O)[nH]c2c1c(=O)[nH]n2C1CC(C)N(C)CC1C (stereo not given)
-1.2%	Cc1ccc(S(=O)(=O)N(CC(=O)NCCSc2ccc(Cl)cc2)c2ccccc2C)cc1
8.1%	COc1ccc(Cn2c(=O)n(-c3ccc(F)c(Cl)c3)c(=O)c3c2c2cc(OC)ccc2n3C)cc1
2.2%	Cc1ccc(S(=O)(=O)N2CCOCC2)cc1NC(=O)CSc1nnnn1C1CCCC1
-12.2%	Cc1nc2ccccc2n1Cc1ccc(Br)cc1
20.8%	NC(=O)c1cccnc1Sc1ccc(Cl)cc1
-6.6%	O=C(NCc1ccc(F)cc1)C(c1ccco1)N(C(=O)c1csnn1)C1CC1 (stereo not given)
2.0%	O=C(Cn1cnc2ccccc21)N/N=C/c1ccccn1
9.5%	Cc1nn(C)c2c1c(C(F)(F)F)cc(=O)n2CC(=O)N1CCCCC1C (stereo not given)
3.8%	O=C(Nc1ccccc1C(=O)O)c1ccc(NC(=O)c2ccc(Br)o2)cc1
1.3%	O=C(NC1CCCCC1)c1cc2nc(-c3ccco3)cc(C(F)(F)F)n2n1
7.3%	COc1ccc(-n2nnnc2SCC(=O)Nc2nc3c(s2)CCCC3)cc1
8.1%	Nc1ncc(Br)cc1S(=O)(=O)NCCC(=O)Nc1cccc(Cl)c1
-13.5%	O=C(Nc1ccccc1)C1=C[C@H](c2csc3ccccc23)C[C@H](OCCCCO)O1
1.8%	CN(Cc1ccc(F)cc1)C(=O)CN1C(=O)c2ccccc2S1(=O)=O
6.1%	O=C(CCN1N=C(c2ccccc2)CCC1=O)NCCCN1CCOCC1
8.3%	CSCCNCc1cn(-c2ccc(F)cc2F)nc1-c1ccccc1C
-6.2%	CC(c1cccnc1)N(CCN(C)C)C(=O)Nc1ccc(Cl)cc1 (stereo not given)
14.0%	Cc1cc(NC(=O)c2cccn2-c2nnc(N3CCCCC3)s2)ccc1Br
-11.0%	O=C(CCCn1c(SCC(=O)Nc2ccccc2Cl)nc2ccccc2c1=O)NCC1CCCO1 (stereo not given)
-12.5%	COC(=O)C1=C(C)OC(N)=C(C#N)C1c1ccc(OC)c(OC)c1OC (stereo not given)
-4.6%	COc1cc2cc(CN(Cc3cccs3)C(=S)Nc3ccc(C)cc3)c(=O)[nH]c2cc1OC
-10.4%	S=c1[nH]nc(COc2ccccc2)n1/N=C/C=C/c1ccco1
3.3%	COc1ccccc1CCc1nnc(CCC(=O)NCC2CCCO2)o1 (stereo not given)
-20.4%	Cc1ccnc(NC(=O)C(Cc2ccccc2)NC(=O)c2ccccc2)c1 (stereo not given)
7.2%	CC(C)C(NS(=O)(=O)c1cccs1)C(=O)NCCCN1CCCCCC1 (stereo not given)
-1.8%	Cc1ccc(S(=O)(=O)N2CCOCC2)cc1NC(=O)COc1cccc(-n2cnnn2)c1
9.9%	CCCN1C(=S)c2ccccc2C1c1ccccc1 (stereo not given)
-12.7%	COc1cc(/C=N/NC(=O)c2cccnc2)ccc1OCC(=O)Nc1c(C)cc(C)cc1C
1.6%	CCCNC(=O)C(NS(=O)(=O)c1ccc2c(c1)c(=O)n(C)c(=O)n2C)c1ccccc1 (stereo not given)
-12.3%	CC1(C)CC(=O)C(=C2SCCCS2)C(=O)C1
4.8%	COC(=O)C1CC(=O)N(CCc2c[nH]c3ccccc23)C1 (stereo not given)
17.2%	CS(=O)(=O)c1ccccc1C(=O)NCCC(c1ccccc1)c1ccccc1
-2.7%	O=S(=O)(Nc1ccc(Cc2ccncc2)cc1)N1CCCC1
-1.5%	COc1ccc(CCNC(=O)c2c(C)nn(CC(C)C)c2Cl)cc1
-3.2%	COc1ccc(CNC(=O)[C@H](C)[C@@H]2C[C@@]2(C)[C@@H](NC(=O)OCc2ccccc2)c2ccccc2)cc1OC

# 15 successive records out of the list so far, quoted:
VDR inh	molecule
-4.6%	COc1cc2cc(CN(Cc3cccs3)C(=S)Nc3ccc(C)cc3)c(=O)[nH]c2cc1OC
-10.4%	S=c1[nH]nc(COc2ccccc2)n1/N=C/C=C/c1ccco1
3.3%	COc1ccccc1CCc1nnc(CCC(=O)NCC2CCCO2)o1 (stereo not given)
-20.4%	Cc1ccnc(NC(=O)C(Cc2ccccc2)NC(=O)c2ccccc2)c1 (stereo not given)
7.2%	CC(C)C(NS(=O)(=O)c1cccs1)C(=O)NCCCN1CCCCCC1 (stereo not given)
-1.8%	Cc1ccc(S(=O)(=O)N2CCOCC2)cc1NC(=O)COc1cccc(-n2cnnn2)c1
9.9%	CCCN1C(=S)c2ccccc2C1c1ccccc1 (stereo not given)
-12.7%	COc1cc(/C=N/NC(=O)c2cccnc2)ccc1OCC(=O)Nc1c(C)cc(C)cc1C
1.6%	CCCNC(=O)C(NS(=O)(=O)c1ccc2c(c1)c(=O)n(C)c(=O)n2C)c1ccccc1 (stereo not given)
-12.3%	CC1(C)CC(=O)C(=C2SCCCS2)C(=O)C1
4.8%	COC(=O)C1CC(=O)N(CCc2c[nH]c3ccccc23)C1 (stereo not given)
17.2%	CS(=O)(=O)c1ccccc1C(=O)NCCC(c1ccccc1)c1ccccc1
-2.7%	O=S(=O)(Nc1ccc(Cc2ccncc2)cc1)N1CCCC1
-1.5%	COc1ccc(CCNC(=O)c2c(C)nn(CC(C)C)c2Cl)cc1
-3.2%	COc1ccc(CNC(=O)[C@H](C)[C@@H]2C[C@@]2(C)[C@@H](NC(=O)OCc2ccccc2)c2ccccc2)cc1OC

# The list continues:
VDR inh	molecule
9.7%	Cc1ccc(S(=O)(=O)Nc2nc3ccccc3nc2N2CCc3ccccc3C2)cc1
-9.8%	COc1ccc(COCC(O)CN2CCN(S(=O)(=O)c3c(F)cccc3F)CC2)cc1OC (stereo not given)
-0.8%	Cc1ccc(SCC(=O)c2cc(C)c(OC(=S)N(C)C)c(C)c2)cc1
3.2%	COc1ccc(N2CCN(C(=O)NC34CC5CC(CC(C5)C3)C4)CC2)cc1
-6.5%	CC(C)(C)OC(=O)C[C@@H]1C/C=C\C[C@@H](CC(=O)NCCO)C(=O)N[C@H](Cc2ccccc2)COC1=O
?	Cn1nc(-c2ccc(Cl)cc2)c2cc(C(=O)NC3CC3)sc21
20.8%	O=C(O)C1CCN(S(=O)(=O)c2cccc3nonc23)CC1
-26.9%	COc1c2occc2c(OC(C)=O)c2c(=O)cc(C)oc12
-5.4%	O=C1NC(CCc2ccccc2)C(=O)N1CCOc1cccc(Br)c1 (stereo not given)
-12.3%	O=C1O/C(=C\c2ccccc2)c2ccccc21
2.2%	CCOC(=O)c1c(C)[nH]c(C)c1C(=O)COC(=O)CCc1ccccc1
0.0%	N#CCC(=O)c1ccccc1Oc1ccc(Cl)cc1
-1.0%	CCOc1ccccc1NC(=O)COC(=O)C12CC3CC(CC(O)(C3)C1)C2
70.8µM*	Cc1ccc(NC(=O)CN2C(=O)S/C(=C\c3cc(Cl)c(OCC(=O)O)c(Cl)c3)C2=O)cc1
-7.2%	COc1ccc(OCCn2nnc3sc4c(c3c2=O)CCC(C(C)(C)C)C4)cc1 (stereo not given)
